Screening results (PubChem BioAssay)
AID504770: growth inhibitors of E. coli YBA685 in a screen for V. cholerae RctB (chromosome II replication) inhibitors. E. coli YBA685 rctB-dependent plasmid, OD600 growth, 3 h; active compounds read low. z-score (no concentration beside the values). 130,000 tested, 0.27% active. AID 504770;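 active = z-score under -2 on both plates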;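 note: wells of about 30 µL received 100 nL stock; score is relative to mean and SD of the test wells; the first replicate is given; strong numbers were not always called active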
CapD inh: CapD enzyme inhibition. purified CapD enzyme, fluorescence intensity read-out; active compounds read low; some hits fall short of the stated cut. z-score (concentration not given with the values). 140,000 tested, 0.23% active;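 active = z-score under -4 in either of two replicates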;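 note: stock transfer was 100 nL into about 40 µL; score is relative to mean and spread of the plate; one replicate is shown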
Starred values were filed as active, the others as inactive.

How did C1C2CC3CC1CC(C2)C3Nc1nc2nonc2nc1NC1C2CC3CC(C2)CC1C3 (stereo not given) do in these assays?
CapD inh: -0.55

How did Cc1nc2sc3c(c2c2nnc(SCC(=O)c4ccccc4)n12)CCCC3 do in these assays?
AID504770: 0.65; CapD inh: -1.4

Results for Cc1ccc(C)c2c1NS(=O)(=O)c1ccccc1-2 ?
CapD inh: 3.1

Results for COc1ccc2[nH]cc(CN(C)C)c2c1 ?
AID504770: 1.4; CapD inh: -0.21

How did CCOC(=O)C(NC(=O)Cn1nc(C(F)(F)F)c(Br)c1C)C(=O)OCC do in these assays?
CapD inh: -0.34

How did COc1ccc2cc3c(nc2c1)OCC3 do in these assays?
AID504770: -1.3; CapD inh: 120

How did C=CCn1c(SCC(=O)NCc2cccnc2)nc2sc(C)c(C)c2c1=O do in these assays?
CapD inh: -0.025

Results for CC1CC2(O)c3no[n+]([O-])c3CCC2N1O (stereo not given) ?
AID504770: -0.25

What do the screens show for `N#Cc1sc(C(N)=O)c(-c2ccccc2)c1-c1ccccc1`?
CapD inh: 0.58

Results for COC(=O)C1=C(C)NC(=O)/C1=C\c1cc(C)n(-c2ccc(OC)c(Cl)c2)c1C ?
AID504770: -1; CapD inh: 0.17

How did Cc1ccc2c(CC(=O)OC(C)C(=O)Nc3ccc(N4CCOCC4)cc3)coc2c1 (stereo not given) do in these assays?
AID504770: 0.45

Results for COc1ccc2[nH]cc(CCNC(=O)OC/C=C/COCc3ccccc3)c2c1 ?
CapD inh: 0.93

Results for CN(c1cc(=O)n2ccccc2n1)C1CCCCC1 ?
AID504770: -0.15

Results for CC(C)(C)c1cc(NS(=O)(=O)c2ccc(C#N)cc2)no1 ?
AID504770: -0.4; CapD inh: 0.79

Results for O=C(Cn1cnc([N+](=O)[O-])n1)Nc1ccc(Cl)cc1C(=O)c1ccccc1 ?
CapD inh: 0.035

What do the screens show for `CNc1oc(C)nc1S(=O)(=O)c1ccc(C)cc1`?
CapD inh: 0.83

Results for COc1ccc(-n2c(=S)[nH]c3cc(C(=O)NC4CCCC(C)C4C)ccc3c2=O)c(OC)c1 (stereo not given) ?
AID504770: -0.3; CapD inh: 7.5

How did CC(=O)Nc1cccc(C(=O)NCc2ccccc2F)c1 do in these assays?
AID504770: -0.2

How did O=C(c1ccco1)N1CCN(C(=O)c2cnn(-c3ccccc3)c2-n2cccc2)CC1 do in these assays?
AID504770: -0.05; CapD inh: -0.025

How did CCOC(=O)c1cccc(CSc2n[nH]c(N)n2)c1 do in these assays?
AID504770: -0.7; CapD inh: -0.28

Results for COc1ccc(S(=O)(=O)Cc2ccccc2)cc1NC(C)=O ?
AID504770: 1.1; CapD inh: -0.16

Results for CCCCC1=NN(C(=O)c2ccc(Cl)cc2)C(O)(C(F)(F)F)C1 (stereo not given) ?
CapD inh: -0.07

How did O=C(O)CC(NC(=O)c1ccccc1)C(=O)O (stereo not given) do in these assays?
AID504770: -0.5; CapD inh: 1.3

How did O=C1N=C(N2CCN(c3ccccc3)CC2)S/C1=C/c1ccc(O)cc1 do in these assays?
CapD inh: -0.75

How did O=C(Nc1ccc(-c2nc3cccnc3s2)cc1)c1ccccc1 do in these assays?
AID504770: 1.9; CapD inh: -0.84

Results for CC1(N(O)/C=C2/C=CC=N2)CCCCC1=O (stereo not given) ?
AID504770: 0.3; CapD inh: -1.2

What do the screens show for `Cc1ccccc1OCC(O)Cn1c(NCc2ccccc2)nc2c1c(=O)n(C)c(=O)n2C` (stereo not given)?
CapD inh: -1.4

Results for O=c1oc2c(ccc3c(O)cccc32)c2c1CCCC2 ?
AID504770: 0.2; CapD inh: 3.3

What do the screens show for `NC(=O)Cn1cnc(-c2ccc(F)cc2)c1`?
AID504770: -2.5; CapD inh: 0.045

What do the screens show for `CCc1ccc(NC(=O)COc2cnc3ccccc3n2)cc1`?
AID504770: -0.95; CapD inh: 0.39

Results for Nc1c2c(nn1Cc1ccccc1)CCCn1c-2nc2ccccc2c1=O ?
AID504770: 1.4

How did COc1cc(/C=c2\sc3nc4ccccc4n3c2=O)ccc1OC(=O)c1ccc(Cl)cc1 do in these assays?
CapD inh: 0.53

What do the screens show for `COC(=O)C1=C(C(=O)OC)SC2(S1)C(C(=O)OC)=C(C(=O)OC)SC1=C2c2cccc(OC)c2N(C(=O)c2ccc(F)cc2)C1(C)C`?
CapD inh: -0.33

Results for Cn1ccnc1SCC(=O)Nc1ccccc1Oc1ccccc1 ?
AID504770: -0.15; CapD inh: 0.29

What do the screens show for `CCNCc1ccncc1`?
AID504770: 0.15

How did CC(=O)Oc1ccc(C(=O)Nc2ccc(F)cc2F)cc1 do in these assays?
AID504770: -0.1; CapD inh: 0.43

How did COC(=O)c1sc(-c2cccs2)cc1NC(=O)CCC(=O)O do in these assays?
AID504770: -0.05; CapD inh: 118

Results for O=C(NCCN1CCOCC1)c1ccc(-n2cc(-c3ccnc4ccccc34)cn2)cc1 ?
CapD inh: 6.4

What do the screens show for `CC(=O)NC(=S)Nc1nc2ccccc2n1C(C)=O`?
AID504770: 0; CapD inh: -0.065

What do the screens show for `N#Cc1c(NC(=O)c2ccc(N3C(=O)C4C5C=CC(C5)C4C3=O)cc2)sc2c1CCC2` (stereo not given)?
CapD inh: 0.35

What do the screens show for `Brc1ccc2c(c1)OCCO2`?
AID504770: 0.2

Results for Cc1cc(C)n(-c2ccc(C(=O)OCC(=O)Nc3c(Cl)cccc3Cl)cc2)n1 ?
AID504770: 1.4; CapD inh: 0.17

How did CC(C)(C)C(=O)C1C(c2cccc3ccccc23)C(C#N)(C#N)C2c3ccccc3C=CN12 (stereo not given) do in these assays?
CapD inh: 15

What do the screens show for `CN(Cc1nc2ccccc2s1)S(=O)(=O)c1cccc(Cl)c1`?
AID504770: 0.25

What do the screens show for `COc1ccc2nc(NS(=O)(=O)Cc3ccccc3)sc2c1`?
AID504770: -0.75

What do the screens show for `CCOC(=O)N1CCN(C(=O)CCCC2CCCCC2)CC1`?
AID504770: 0.8

What do the screens show for `O=C(O)/C=C\C(=O)Nc1ccc2cn[nH]c2c1`?
AID504770: -0.95

How did COc1ccc(OCC(C)N)cc1 (stereo not given) do in these assays?
AID504770: 0.45

How did COc1cc(Cl)c(NS(=O)(=O)c2cc(Br)c(Br)s2)c(OC)c1 do in these assays?
CapD inh: -0.15

What do the screens show for `COc1cc(OC)nc(OC(Cc2nc3ccccc3o2)c2ccc(C(F)(F)F)cc2)n1` (stereo not given)?
CapD inh: 12

How did CC(C)N1CCc2c(sc(NC(=O)C3=COCCO3)c2C(N)=O)C1 do in these assays?
AID504770: 0.75

What do the screens show for `O=C(CN1CCN(CCOCCO)CC1)N1c2ccccc2Sc2ccc(C(F)(F)F)cc21`?
CapD inh: -0.39

Results for Cc1cc(C(=O)N2CCN(Cc3ccccc3)CC2)n[nH]1 ?
AID504770: -0.6; CapD inh: 0.44

How did O=C(CSc1nc(O)cc(=O)n1-c1ccccc1)N1CCc2ccccc21 do in these assays?
AID504770: 0.3; CapD inh: -0.03

Results for Cc1ccc(C(=O)CCC(=O)Nc2cccc3ccccc23)cc1 ?
AID504770: -0.05; CapD inh: 2.6

What do the screens show for `COc1ccccc1N1CCN(CC(N)=O)CC1`?
AID504770: -0.45

How did CC(C)Cc1nnc(NC(=O)CCCN2C(=O)CCC2=O)s1 do in these assays?
AID504770: -0.3

How did CCOc1ccc(C2CC(=O)NC3=C2C(=O)CCC3)cc1 (stereo not given) do in these assays?
AID504770: 0.3; CapD inh: -0.15

Results for Cc1oc2ccccc2c2nn(C)c(=O)c1-2 ?
AID504770: 0.3; CapD inh: -0.67

Results for O=S(=O)(c1ccc(-c2cc(C(F)(F)F)on2)s1)N1CCC(O)CC1 ?
AID504770: -0.25; CapD inh: 0.59

Arranged by length of the SMILES (rising): 16 of the compounds above
What do the screens show for `Brc1ccc2c(c1)OCCO2`?
AID504770: 0.2

What do the screens show for `COc1ccccc1N1CCN(CC(N)=O)CC1`?
AID504770: -0.45

Results for Cc1oc2ccccc2c2nn(C)c(=O)c1-2 ?
AID504770: 0.3; CapD inh: -0.67

What do the screens show for `O=C(O)/C=C\C(=O)Nc1ccc2cn[nH]c2c1`?
AID504770: -0.95

What do the screens show for `CCOC(=O)N1CCN(C(=O)CCCC2CCCCC2)CC1`?
AID504770: 0.8

How did CCOc1ccc(C2CC(=O)NC3=C2C(=O)CCC3)cc1 (stereo not given) do in these assays?
AID504770: 0.3; CapD inh: -0.15

Results for Cc1cc(C(=O)N2CCN(Cc3ccccc3)CC2)n[nH]1 ?
AID504770: -0.6; CapD inh: 0.44

Results for Cc1ccc(C(=O)CCC(=O)Nc2cccc3ccccc23)cc1 ?
AID504770: -0.05; CapD inh: 2.6

What do the screens show for `CN(Cc1nc2ccccc2s1)S(=O)(=O)c1cccc(Cl)c1`?
AID504770: 0.25

How did CC(C)N1CCc2c(sc(NC(=O)C3=COCCO3)c2C(N)=O)C1 do in these assays?
AID504770: 0.75

How did O=C(CSc1nc(O)cc(=O)n1-c1ccccc1)N1CCc2ccccc21 do in these assays?
AID504770: 0.3; CapD inh: -0.03

How did COc1cc(Cl)c(NS(=O)(=O)c2cc(Br)c(Br)s2)c(OC)c1 do in these assays?
CapD inh: -0.15

Results for O=S(=O)(c1ccc(-c2cc(C(F)(F)F)on2)s1)N1CCC(O)CC1 ?
AID504770: -0.25; CapD inh: 0.59

Results for Cc1cc(C)n(-c2ccc(C(=O)OCC(=O)Nc3c(Cl)cccc3Cl)cc2)n1 ?
AID504770: 1.4; CapD inh: 0.17

What do the screens show for `O=C(CN1CCN(CCOCCO)CC1)N1c2ccccc2Sc2ccc(C(F)(F)F)cc21`?
CapD inh: -0.39

How did CC(C)(C)C(=O)C1C(c2cccc3ccccc23)C(C#N)(C#N)C2c3ccccc3C=CN12 (stereo not given) do in these assays?
CapD inh: 15

(next part)
How did CCC1=C(C)CN(C(=O)NCCc2ccc(S(=O)(=O)NC(=O)NC3CCC(C)CC3)cc2)C1=O (stereo not given) do in these assays?
CapD inh: -0.27

How did CC(C)[C@H]1COC(c2cccc(C3=N[C@@H](C(C)C)CO3)n2)=N1 do in these assays?
AID504770: 1.3; CapD inh: -0.39

How did Cc1cc(NC(=O)CN2CCCc3ccccc32)no1 do in these assays?
AID504770: -1.4

Results for O=C(c1snnc1-c1ccccc1)N1CCN(c2ccccc2F)CC1 ?
CapD inh: -0.65

Results for Cc1cccc(NC(=O)c2ccc(N3CC4CC(C3)c3cccc(=O)n3C4)c(NC(=O)Cc3c(F)cccc3Cl)c2)n1 (stereo not given) ?
CapD inh: 0.75

What do the screens show for `CCn1c(SCC(=O)c2ccccc2)nnc1-c1c[nH]c2ccccc12`?
AID504770: -0.2

What do the screens show for `COc1cccc(C(=O)NC(=S)Nc2ccc(O)c(-c3nc4ccccc4s3)c2)c1`?
AID504770: -0.8; CapD inh: 0.24

Results for COc1ccc(C2Nc3ccccc3C(=O)N2Cc2ccccc2)cc1Cn1cc([N+](=O)[O-])cn1 (stereo not given) ?
CapD inh: 2.8

How did Cc1ccccc1C(=O)c1c[nH]c(C(=O)NCCCN2CCOCC2)c1 do in these assays?
CapD inh: -0.49

Results for O=C(O)c1ccc(N=c2oc3cc(O)ccc3cc2C(=O)Nc2ccc(F)c(Cl)c2)cc1 ?
CapD inh: -1.7

Results for CC(C)n1cc(C#N)c(=O)n(Cc2ccccc2)c1=O ?
CapD inh: 0.075

What do the screens show for `COc1ccccc1-c1nnc(NC(=O)C(C)SC2=NCCS2)s1` (stereo not given)?
AID504770: 0; CapD inh: 1.4

How did CCC(=O)NC(C)C(c1cccs1)N1CCN(Cc2ccccc2)CC1 (stereo not given) do in these assays?
AID504770: 0.45

Results for CC(O)(CS(=O)(=O)Cc1ccccc1)c1ccc(Cl)c(Cl)c1 (stereo not given) ?
CapD inh: 0

What do the screens show for `CCCOc1cccc(C(=O)Nc2ccc(C(=O)OC)cc2)c1`?
AID504770: -1.3; CapD inh: 15

How did COc1cccc(OC)c1C(=O)OCC(=O)NC1CCCCC1C (stereo not given) do in these assays?
AID504770: 0.15

What do the screens show for `COc1ccc(O)c(C2(O)C(=O)c3ccccc3C2=O)c1`?
AID504770: -0.7

How did Cc1ccc2c(c1)-c1sc(C(=O)Oc3ccc(F)cc3)cc1CS2 do in these assays?
CapD inh: 0.33

What do the screens show for `COc1cc(C2C3=C(CC(C)(C)CC3=O)OC3=C2C(=O)CC(C)(C)C3)ccc1OCc1ccccc1Cl`?
CapD inh: -0.18

Results for Cc1nnc(NC(=O)c2cn(-c3ccccc3)nc2-c2cccnc2)o1 ?
AID504770: 0.7

Results for CN(Cc1ccccc1)S(=O)(=O)c1ccc(N2CCOCC2)nc1 ?
AID504770: 0; CapD inh: -0.33

What do the screens show for `COc1ccc(CN(C)S(C)(=O)=O)cc1`?
AID504770: 0.65; CapD inh: 0.045

How did Cc1ccc(-n2c(SCC(=O)N3CCNC3=O)nnc2-c2ccccc2)cc1C do in these assays?
AID504770: 2.5

Results for CCOC(=O)Cc1nc2nc(C)cc(=O)n2[nH]1 ?
CapD inh: -0.64

How did COc1ccc2c(C)c(CC(C)O)c(=O)oc2c1 (stereo not given) do in these assays?
AID504770: 0.75; CapD inh: 0.13

What do the screens show for `O=C1NC(=Nc2ccccc2)SC1Cc1cccc(Cl)c1` (stereo not given)?
CapD inh: -0.065

Results for O=C(O)CCCNc1ccc([N+](=O)[O-])cc1[N+](=O)[O-] ?
CapD inh: -3.5

How did N#Cc1ccc(OC(=O)COc2ccc(Br)cc2)cc1 do in these assays?
AID504770: -0.05; CapD inh: 0.69

What do the screens show for `CC1CC(C)CN(CCCNC(=O)Cc2c(C(=O)O)[nH]c3ccccc23)C1` (stereo not given)?
AID504770: -0.3; CapD inh: 0.41

What do the screens show for `CC(=O)Nc1ccc(S(=O)(=O)c2cc(OC(=O)c3ccco3)ccc2OC(=O)c2ccco2)cc1`?
AID504770: -0.95; CapD inh: -0.48

What do the screens show for `CN(c1ccc(-c2csc(-c3cccs3)n2)cc1)S(C)(=O)=O`?
AID504770: -0.25

How did O=C(O)Cc1ccc2c(c1)CCC2 do in these assays?
AID504770: 2.3

This is a random part of the collection; any-hit rate near 0.37%.
